Screens (PubChem BioAssay)
STAT3 SMM: STAT3 (human) binding | P40763 | Small molecule microarray, His-STAT3 binding, anti-His fluorescence | calls only | hit rate 0.2% among 17,000;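 active = compounds whose four printed spots each show fluorescence over background unusually high for their array block, chance value under 7%; compounds were printed on slides so no solution concentration is given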;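 also: about 2 pmol printed per array spot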
Target sequence (P40763 whole entry, looked up): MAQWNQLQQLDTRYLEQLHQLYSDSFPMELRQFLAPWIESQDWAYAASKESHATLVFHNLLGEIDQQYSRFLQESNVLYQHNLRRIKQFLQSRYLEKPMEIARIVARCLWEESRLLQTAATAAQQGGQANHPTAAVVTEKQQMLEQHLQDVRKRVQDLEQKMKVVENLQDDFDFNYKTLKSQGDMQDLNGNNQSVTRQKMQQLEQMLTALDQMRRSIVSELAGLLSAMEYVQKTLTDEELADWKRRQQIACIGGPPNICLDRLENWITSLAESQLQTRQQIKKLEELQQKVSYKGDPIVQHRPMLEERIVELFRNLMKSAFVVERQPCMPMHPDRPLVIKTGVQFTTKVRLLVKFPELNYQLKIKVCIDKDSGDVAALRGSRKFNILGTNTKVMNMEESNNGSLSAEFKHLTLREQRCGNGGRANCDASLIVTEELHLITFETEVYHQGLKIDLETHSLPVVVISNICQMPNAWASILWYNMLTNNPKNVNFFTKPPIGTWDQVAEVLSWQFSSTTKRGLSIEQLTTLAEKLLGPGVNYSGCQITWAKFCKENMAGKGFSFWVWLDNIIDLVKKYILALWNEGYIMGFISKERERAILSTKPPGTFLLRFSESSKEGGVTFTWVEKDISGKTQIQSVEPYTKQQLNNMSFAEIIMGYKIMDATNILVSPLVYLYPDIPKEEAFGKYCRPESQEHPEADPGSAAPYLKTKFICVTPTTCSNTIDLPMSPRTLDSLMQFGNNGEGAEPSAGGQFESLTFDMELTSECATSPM
Myc binder: binds human c-Myc on microarray; P01106; small molecule microarray, His-c-Myc binding, anti-His fluorescence; calls only; hit rate 1.5% among 17,000;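 active = spot fluorescence over background with P-value below 7% in all four replicate spots, showing protein binding; compounds were printed on slides so no solution concentration is given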;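 also: score is binary with 100 for all four spots passing and 0 otherwise; about 2 pmol printed per array spot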
ID4 SMM: ID4 (human) binding; P47928; hit rate 1.2% among 31,000; calls only; small molecule microarray, Flag-ID4 binding, fluorescence F/B;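 active = spot signal over background at p below 0.07 in all four prints; compounds were printed on slides so no solution concentration is given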;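 also: a binder raises fluorescence above local background on the spot; about 2 pmol printed per array spot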
Target sequence (P47928 whole entry, looked up): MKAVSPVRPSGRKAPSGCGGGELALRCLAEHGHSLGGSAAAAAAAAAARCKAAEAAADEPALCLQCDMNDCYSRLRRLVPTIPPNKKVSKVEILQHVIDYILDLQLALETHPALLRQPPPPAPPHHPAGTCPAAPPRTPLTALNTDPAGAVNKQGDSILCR
p53 mut binder: binders of human mutant p53; small molecule microarray binding, anti-GST fluorescence; calls only; hit rate 0.4% among 17,000;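 active = compounds whose four printed spots each glow above background more than chance allows, each with a p-value under 7%; compounds were printed on slides so no solution concentration is given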;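 also: about 2 pmol printed per array spot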
Calls only; i = inactive; . = not tested or not shown; + = active, no number.

Below each compound: p53 mut binder, STAT3 SMM, ID4 SMM, Myc binder
> C[C@@H]1CCCCO[C@H](CN(C)S(=O)(=O)c2ccccc2)[C@@H](C)CN([C@@H](C)CO)C(=O)c2cc(NC(=O)CCCN(C)C)ccc2O1
    i, i, i, i
> OCc1cc2c([nH]c3ccccc32)c(C(O)CO)n1 (stereo not drawn)
    i, i, i, i
> NC(=O)CN1CCN(CCN2C(=O)c3cccc4cccc(c34)C2=O)CC1
    i, i, +, i
> Cc1noc(C)c1S(=O)(=O)Nc1ccc2c(c1)C(=O)N([C@@H](C)CO)C[C@@H](C)[C@@H](CN(C)Cc1ccccc1)OCCCC[C@H](C)O2
    i, i, ., i
> C[C@@H]1CN([C@H](C)CO)C(=O)CCCn2nncc2CO[C@@H]1CN(C)S(=O)(=O)c1ccc(Cl)cc1
    i, i, i, i
> [O-][NH2+]c1ccc(O)c2ncccc12
    i, i, i, i
> COc1ccc(S(=O)(=O)Nc2cccc3c2O[C@@H](CN(C)Cc2ccc4c(c2)OCO4)[C@@H](C)CN([C@@H](C)CO)C3=O)cc1
    i, i, i, i
> COc1ccc(NC(=O)Nc2ccc3c(c2)C(=O)N([C@H](C)CO)C[C@@H](C)[C@H](CN(C)S(=O)(=O)c2cccs2)O3)cc1
    i, i, i, i
> Cc1noc(C)c1NC(=O)Nc1cccc2c1O[C@H](CN(C)CC1CC1)[C@@H](C)CN([C@@H](C)CO)C2=O
    i, i, i, i
> COCCNS(=O)(=O)c1ccc(Cl)c(Cl)c1OC
    i, i, i, i
> C[C@H](CO)N1C[C@H](C)[C@@H](CN(C)Cc2ccccc2)Oc2ccc(N(C)C)cc2CC1=O
    i, i, i, i
> CC(=O)OC1C(=O)C2(C)C(O)CC3OCC3(OC(C)=O)C2C(OC(=O)c2ccccc2)C2(O)CC(OC(=O)C(O)C(NC(=O)c3ccccc3)c3ccccc3)C(C)=C1C2(C)C (stereo not drawn)
    i, i, i, i
> C[C@@H]1CN([C@@H](C)CO)C(=O)c2cc(NS(=O)(=O)c3cn(C)cn3)ccc2O[C@@H]1CN(C)Cc1ccccc1
    i, i, i, i
> C[C@H](CO)N1C[C@H](C)[C@H](CN(C)C(=O)Nc2ccc3c(c2)OCO3)Oc2ccc(NS(=O)(=O)c3ccccc3)cc2CC1=O
    i, i, i, i
> CC1(C)CC[C@@]2(C(=O)O)C(C1)C1=CCC3[C@@]4(C)CC[C@H](O)C(C)(C)C4CC[C@@]3(C)[C@]1(C)C[C@H]2O (stereo partly drawn)
    i, i, i, i
> C/C=C\C=C/C1OC(O)(C(CC)C(=O)NC/C=C\C=C(\C)C(OC)C(C)C2OC(\C=C/C=C\C=C(\C)C(=O)c3c(O)cc[nH]c3=O)C(O)C2O)C(O)C(O)C1(C)C (stereo not drawn)
    i, i, i, i
> C[C@H]1CN([C@@H](C)CO)C(=O)c2cccc(NC(=O)c3ccc(-c4nccs4)cc3)c2O[C@H]1CN(C)C(=O)Nc1ccccc1
    i, i, i, i
> C[C@@H]1CN([C@@H](C)CO)C(=O)c2cc(NC(=O)Nc3ccc(F)cc3)ccc2O[C@@H]1CN(C)S(=O)(=O)c1cn(C)cn1
    i, i, i, i
> CC1=C(C)CC(C(=O)Nc2cccc3ccccc23)C(C(=O)O)C1 (stereo not drawn)
    i, i, i, i
> CN(CC(=O)N1CCN(c2ccccn2)CC1)S(=O)(=O)c1ccc2ccccc2c1
    i, i, i, i
> C[C@@H]1CN([C@H](C)CO)C(=O)c2cccc(NS(=O)(=O)c3cn(C)cn3)c2O[C@@H]1CN(C)S(=O)(=O)c1ccc(F)cc1
    i, i, i, i
> CCc1ccc(C(Nc2cc(C)ccn2)c2ccc3cccnc3c2O)cc1 (stereo not drawn)
    +, i, i, i
> O=S(=O)(CCSc1ccccn1)c1nc2ccccc2s1
    i, i, i, i
> C[C@@H]1CN([C@H](C)CO)C(=O)c2cc(NS(=O)(=O)c3cccs3)ccc2O[C@@H](C)CCCCO[C@@H]1CN(C)Cc1ccccc1
    i, i, i, i
> C[C@H](CO)N1C[C@H](C)[C@@H](CN(C)C(=O)CCC(F)(F)F)OCCCC[C@H](C)Oc2ccc(NC(=O)CCC(F)(F)F)cc2C1=O
    i, i, i, i
> COc1cc2[nH]c3ccccc3c2cc1C
    i, i, i, i
> COc1ccc(S(=O)(=O)N(C)C[C@@H]2Oc3ccc(NS(=O)(=O)c4ccc(Cl)cc4)cc3C(=O)N([C@@H](C)CO)C[C@H]2C)cc1
    i, i, i, i
> C[C@H](CO)N1C[C@H](C)[C@H](CN(C)S(=O)(=O)c2cccs2)Oc2ncc(Br)cc2C1=O
    i, i, i, i
> C[C@H]1CN([C@@H](C)CO)C(=O)Cc2cc(NC(=O)NC3CCCCC3)ccc2O[C@@H]1CN(C)S(=O)(=O)c1cccs1
    i, i, i, i
> CNC[C@H]1OCCCC[C@H](C)Oc2ccc(NC(=O)Nc3ccccc3)cc2C(=O)N([C@H](C)CO)C[C@H]1C
    i, i, i, i

Further entries follow.
Below each compound: p53 mut binder, STAT3 SMM, ID4 SMM, Myc binder
> CC(=O)c1c(C)oc2ccc(NS(=O)(=O)c3cccc4cccnc34)cc12
    i, i, i, i
> Cc1cc(C)c(C)c(Cn2c(CCCO)nc3ccccc32)c1C
    i, i, i, i
> Cc1noc(C)c1NC(=O)N(C)C[C@@H]1Oc2c(NC(=O)Nc3ccc(C(F)(F)F)cc3)cccc2C(=O)N([C@H](C)CO)C[C@@H]1C
    i, i, i, i
> O=C(O)CSc1ccc(Br)c2cccc(C(=O)O)c12
    i, i, i, i
> C[C@@H]1CCCCO[C@@H](CN(C)Cc2ccncc2)[C@H](C)CN([C@@H](C)CO)C(=O)c2cc(NC(=O)CCC(F)(F)F)ccc2O1
    i, i, ., i
> C=CC(C)(O)CC[C@H]1C(=C)CCC2[C@](C)(C(=O)O)CCC[C@@]21C (stereo partly drawn)
    i, i, i, i
> Cc1cc2nn(-c3ccc(F)cc3)nc2cc1NC(=S)NC(=O)COc1ccccc1
    i, i, i, i
> O=C(CNCCO)Nc1sc2c(c1C(=O)Nc1ccc(Br)cc1)CCC2
    i, i, i, i
> C[C@@H]1CN([C@@H](C)CO)C(=O)CCCn2cc(nn2)CO[C@@H]1CN(C)S(=O)(=O)c1ccc(Cl)cc1
    i, i, i, i
> COc1ccc(S(=O)(=O)N(C)C[C@@H]2Oc3c(NC(=O)c4ccncc4)cccc3C(=O)N([C@H](C)CO)C[C@H]2C)cc1
    i, i, i, i
> O=C(COc1ccccc1)Nc1ncn[nH]1
    i, i, i, i
> COC(=O)C1=C(C)NC(C)=C([N+](=O)[O-])[C@@H]1c1ccccc1C(F)(F)F
    i, i, i, i
> Cc1noc(C)c1S(=O)(=O)Nc1ccc2c(c1)C(=O)N([C@H](C)CO)C[C@@H](C)[C@H](CN(C)C(=O)c1ccncc1)OCCCC[C@@H](C)O2
    i, i, i, i
> Cc1nn(-c2ccccc2)c(C)c1/C=N/N1CCN(Cc2ccccc2)CC1
    i, i, i, i
> C[C@@H]1CCCCO[C@@H](CN(C)C(=O)CCC(F)(F)F)[C@@H](C)CN([C@@H](C)CO)C(=O)c2cc(NC(=O)CCC(F)(F)F)ccc2O1
    i, i, i, i
> C/C=C(/C)C(=O)O[C@H]1C[C@@](C)(O)C(=O)[C@@H](OC(=O)/C(C)=C\C)[C@@]2(C)CC[C@@](O)(C(C)C)[C@H]12
    i, i, i, i
> C[C@@H]1CN([C@@H](C)CO)C(=O)Cc2cc(NS(=O)(=O)c3cccs3)ccc2O[C@H]1CN(C)C(=O)Nc1ccc2c(c1)OCO2
    i, i, i, i
> Cc1noc(C)c1S(=O)(=O)N(C)C[C@H]1OCCCC[C@H](C)Oc2ccc(NC(=O)Nc3ccc(F)cc3)cc2C(=O)N([C@@H](C)CO)C[C@@H]1C
    i, i, ., i
> C[C@H]1CN([C@@H](C)CO)C(=O)Cc2cc(NC(=O)CCN3CCOCC3)ccc2O[C@H]1CN(C)S(=O)(=O)c1cccs1
    i, i, i, i
> C[C@@H]1CN([C@H](C)CO)C(=O)c2cccc(NC(=O)c3ccno3)c2O[C@H]1CN(C)S(=O)(=O)c1cccs1
    i, i, i, i
> CCOC(=O)c1c(C)oc2ccc(OCC(=O)c3ccc(Cl)cc3)cc12
    i, i, i, i
> C[C@@H]1CCCCO[C@H](CN(C)Cc2ccccc2)[C@@H](C)CN([C@@H](C)CO)C(=O)c2cc(NC(=O)CCCN(C)C)ccc2O1
    i, i, i, i
> C[C@@H]1CCCCO[C@@H](CN(C)C(=O)Cc2ccccc2)[C@@H](C)CN([C@@H](C)CO)C(=O)c2cc(NS(=O)(=O)c3ccccc3)ccc2O1
    i, i, i, i
> C#Cc1cccc(Nc2ncnc3cc(OC)c(OC)cc23)c1
    i, i, i, i
> C[C@@H]1CN([C@H](C)CO)C(=O)c2cc(N(C)C)ccc2O[C@@H](C)CCCCO[C@@H]1CN(C)C(=O)CCCN(C)C
    i, i, i, i
> Fc1ccccc1OCCCCSc1ncccn1
    i, i, i, i
> O=C(NCCN1CCOCC1)c1ccc(Cl)c(S(=O)(=O)N2CCOCC2)c1
    i, i, +, i
> C[C@@H]1CCCCO[C@@H](CN(C)C(=O)c2ccccc2)[C@@H](C)CN([C@@H](C)CO)C(=O)c2cc(NC(=O)Nc3ccc(F)cc3)ccc2O1
    i, i, i, i
> Cc1nc(SCC(=O)N2c3ccccc3CCc3ccccc32)n[nH]1
    i, i, i, i
> C[C@H](CO)N1C[C@H](C)[C@H](CN(C)C(=O)Nc2ccc(C(F)(F)F)cc2)Oc2ccc(NS(=O)(=O)c3ccccc3)cc2CC1=O
    i, i, i, i

(listing goes on)
Below each compound: p53 mut binder, STAT3 SMM, ID4 SMM, Myc binder
> COc1ccccc1N1CCN(CCN2C(=O)CC3(CCCC3)CC2=O)CC1
    i, i, i, i
> CNC[C@H]1Oc2c(NC(=O)c3ccncc3)cccc2C(=O)N([C@H](C)CO)C[C@@H]1C
    i, i, i, i
> COC(=O)CCCCCCC(=O)Nc1ccc(C2OC(CSc3nc(-c4ccccc4)c(-c4ccccc4)o3)CC(c3ccc([N+](=O)[O-])cc3)O2)cc1 (stereo not drawn)
    i, i, i, i
> Cc1noc(C)c1S(=O)(=O)N(C)C[C@H]1Oc2c(NC(=O)C3CCOCC3)cccc2C(=O)N([C@H](C)CO)C[C@H]1C
    i, i, i, i
> C/C=C(/C)C(=O)OC(C)(C)C1Cc2cc3ccc(=O)oc3cc2O1 (stereo not drawn)
    i, i, i, i
> C[C@H]1CN([C@@H](C)CO)C(=O)c2cccc(NC(=O)C3CCOCC3)c2O[C@@H]1CN(C)C
    i, i, i, i
> COc1ccc(S(=O)(=O)Nc2cccc3c2O[C@H](CN(C)C(=O)NC(C)C)[C@H](C)CN([C@@H](C)CO)C3=O)cc1
    i, i, ., i
> COc1ccc(OC(C)c2nc(-c3ccncc3)no2)cc1 (stereo not drawn)
    i, i, i, i
> Cc1nn(Cc2ccccc2)c(C)c1CCC(=O)O
    i, i, i, i
> CC(=O)c1cccc(NC(=O)NCc2cnn(C)c2)c1
    i, i, i, i
> C=CC[C@]12N=C(c3ccc(OCCCO)cc3)O[C@H]1c1ccccc1CN(CCS(=O)(=O)c1ccccc1)C2=O
    i, i, i, i
> C=CC[C@]1(C(=O)N(C)C)COC(c2ccc(OCCCO)cc2)=N1
    i, i, i, i
> COC(=O)C1=CO[C@@H](O[C@@H]2O[C@H](CO)[C@@H](O)[C@H](O)[C@H]2O)[C@@H]2[C@@](C)(O)[C@@H](OC(=O)/C=C/c3ccc(OC)c(O)c3)C[C@]12O
    i, i, ., i
> Cc1cc(C(=O)Nc2cccc3c2O[C@@H](CN(C)C(=O)Nc2ccc(C(F)(F)F)cc2)[C@H](C)CN([C@H](C)CO)C3=O)n(C)n1
    i, i, ., i
> C[C@@H]1CN([C@H](C)CO)C(=O)c2cccc(NS(=O)(=O)c3cn(C)cn3)c2O[C@@H]1CN(C)Cc1ccc2c(c1)OCO2
    i, i, i, i
> CCO[C@H]1OC(C(=O)NC2CC2)=C[C@@H](c2ccc(C(F)(F)F)cc2)[C@@H]1CCCO
    i, i, i, i
> c1ccc2c(c1)CCCc1cc(NCCN3CCOCC3)nnc1-2
    i, i, i, i
> COc1ccc(S(=O)(=O)N(C)C[C@@H]2Oc3c(NS(C)(=O)=O)cccc3C(=O)N([C@@H](C)CO)C[C@H]2C)cc1
    i, i, i, i

These rows are one share of the data; the hit share may differ from the screen's.
